S aureus helic – inhibitors of S. aureus replicative helicase, primary screen, biochemical, fluorescence unwinding readout; inhibition, %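 (tested at about 80 µM)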; purified S. aureus helicase, fluorescence unwinding assay; about half of the hits fall short of the stated cut; 0.05% of 120,000 active;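 active = both duplicates at 50% or more, or one of them with a favoured structure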;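 also: 0% = mean of negative control wells and 100% = mean of positive control wells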
MgrA DNA FP – S. aureus MgrA activity modulators, primary screen, biochemical, S. aureus Newman, fluorescence polarization; MgrA-DNA binding; inhibition, %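 (about 10 µg/mL by stock and volumes)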; 0.13% of 84,000 active;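 active = above 50% in either of two replicates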;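 also: 0% = protein plus DNA without compound and 100% = DNA alone without protein; higher means less MgrA bound to DNA so lower polarization; one replicate is shown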
* marks the source's active call; other numbers are inactive results; nt = no result given. Only part of the results is shown; the hit share may differ from the screen's.

MgrA DNA FP | S aureus helic | structure
nt | -5.0 | O=C(COC(=O)COc1ccc(Cl)cc1)NC1CC1
nt | 10.0 | O=C(Cn1cc(S(=O)(=O)Cc2ccccc2)c2ccccc21)Nc1nccs1
nt | -21.0 | C=CCn1c(CSc2nc3ccccc3s2)nnc1SCC(=O)NCc1ccco1
nt | 3.0 | CC1(C)Cc2c(c(-c3ccccc3)nc(N3CCCC3)c2C(N)=O)CO1
nt | -181.0 | NC(=O)c1ccsc1N
nt | -13.0 | CC1Cc2cc(C(=O)Cn3nnc4ccccc4c3=O)ccc2N1S(C)(=O)=O (configuration not stated)
-2.0 | 11.0 | COc1cccc(C(CC(=O)Nc2cccc3ccccc23)NC(=O)c2ccccc2)c1 (configuration not stated)
nt | -2.0 | CC1CN(C(=O)C(C)OC(=O)c2ccc3ncsc3c2)CC(C)O1 (configuration not stated)
nt | 10.0 | C=CCc1ccccc1OCC(O)CN(CC)CC (configuration not stated)
2.1 | 11.0 | CCCn1c(C(=O)OC)cc2c1ccn2C
0.3 | nt | COC(=O)C1SCCN1C(=O)c1cc(-c2ccc(Cl)cc2)oc1C (configuration not stated)
nt | -1.0 | CCOC(=O)C1CCN(c2nnc(N3CCCC3=O)s2)CC1
2.1 | -1.0 | CC(C)(C)OC(=O)NCC12C=CC(O1)C1C(=O)N(Cc3ccccc3)C(=O)C12 (configuration not stated)
-1.4 | nt | Brc1cnc(N2CCN(C(c3ccccc3)(c3ccccc3)c3ccccc3)CC2)nc1
nt | -9.0 | O=C(/C=C/c1ccc2ccccc2n1)N1CCN(S(=O)(=O)c2ccc3c(c2)OCCCO3)CC1
0.8 | 2.0 | O=C1CCC(=O)N1CC(=O)N1CCCc2ccccc21
nt | 8.0 | c1ccc(-c2ccc3c(c2)c2c4n3CCN=C4CCC2)cc1
0.4 | nt | O=C(c1ccccc1)n1ccc(-c2cccs2)n1
1.9 | 10.0 | O=c1[nH]c(CN2CCN(CCO)CC2)nc2ccccc12
nt | -2.0 | Cc1coc2cc3oc(=O)c(CCC(=O)NCCc4ccccc4)c(C)c3cc12
0.9 | -2.0 | O=C(CCn1c(=O)c2ccccc2n(CC(=O)Nc2ccccc2)c1=O)NCCc1ccccc1
1.5 | 9.0 | O=C(O)CCc1ccc(-c2ccccc2)n1CCC(=O)O
nt | 6.0 | CCN1C(=Nc2ccc(Cl)cc2)SC/C1=C\C(=O)OC
-1.6 | -6.0 | O=C(COC(=O)C12CC3CC(CC(Cl)(C3)C1)C2)c1ccccc1
-2.0 | -15.0 | O=C(c1ccno1)c1cc(F)ccc1O
nt | 18.0 | O=C(Nc1nc(-c2cccs2)cs1)c1ccc(N2C(=O)CCC2=O)cc1
1.1 | 6.0 | CN(C)S(=O)(=O)c1ccc(C(=O)Nc2c3c(nn2C(C)(C)C)CS(=O)C3)cc1 (configuration not stated)
1.9 | 19.0 | CCC(C)CNC(=O)c1ccc(OC)c(OC)c1 (configuration not stated)
nt | -6.0 | CCOc1ccc(C(=O)NCC(=O)NC2CCN(Cc3ccccc3)CC2)cc1
nt | -12.0 | Cc1cc(C(=O)CSc2ccc(S(=O)(=O)N(C)C)cn2)c(C)n1CCc1cccs1
nt | -18.0 | COC(=O)c1ccc(S(=O)(=O)NCCNc2ncc(Cl)cc2C(F)(F)F)n1C
-0.3 | nt | CCc1ccc(OCCSc2nc3ccccc3n2CCC(=O)O)cc1
-1.9 | -3.0 | O=C(NC1CCCCC1)C1CC(c2ccccc2F)=NO1 (configuration not stated)
2.5 | nt | Cc1ccc(C)n1-c1ccsc1C(=O)CC#N
nt | -17.0 | COC(=O)/N=C/c1c(NCc2ccccc2)nc2c(C)cccn2c1=O
0.4 | 1.0 | COc1ccccc1Cn1c(=S)[nH]c2cc(C(=O)NCCN3CCOCC3)ccc2c1=O
-1.8 | 16.0 | CN(Cc1cccs1)C(=S)SCCO
0.1 | 1.0 | O=C(C(F)F)N(Cc1ccccc1)Cc1ccccc1
nt | 6.0 | COc1ccc(C2OC(=O)CC2C(=O)N2CCN(c3cc(Cl)ccc3C)CC2)cc1OC (configuration not stated)
-2.9 | nt | Cc1ccc(S(=O)(=O)Nc2ccc(N3CCOCC3)c(Cl)c2)cc1
nt | 4.0 | CC1CC(C)CN(c2ncnc3c2cnn3C)C1 (configuration not stated)
nt | 3.0 | CCc1cc2c(C)cc(=O)oc2c2c1OCC2=O
-6.1 | 2.0 | COc1cc(CNCc2ccco2)cc(Cl)c1OC
2.4 | nt | CCOC(=O)C1=C(N)OC2=C(C(=O)CC(C)(C)C2)C1c1ccc(OCc2ccccc2)cc1 (configuration not stated)
nt | 5.0 | CCOCCCn1c(CC(N)=O)n[nH]c1=S
nt | 10.0 | c1ccc(C2NCCn3cccc32)cc1 (configuration not stated)
nt | 18.0 | Cc1cc(NC(=O)CSc2nc3c(c(=O)n2-c2ccc(F)cc2)SC(C)C3)no1 (configuration not stated)
-1.9 | nt | Cc1c(C)c(C)c(CC#N)c(C)c1C
nt | -24.0 | C[N+](C)(C)C/C=C1/COCO1
-0.2 | -2.0 | Cc1cc(=O)[nH]c(SCc2nc3ccccc3[nH]2)n1
-2.2 | 3.0 | Cc1ccc(CC(=O)NC(C)C2CCCO2)cc1 (configuration not stated)
nt | -3.0 | Cc1ccc(Cn2ccsc2=NC(=O)COC(=O)c2ccc3c(=O)n4c(nc3c2)CCC4)cc1
nt | -7.0 | N#Cc1c2n(c(=O)n(-c3ccc(Cl)cc3)c1=N)CCC2
nt | -10.0 | O=C1NNC(c2ccccc2)=N/C1=C\c1ccc(Cl)cc1
-5.2 | nt | COC(=O)c1sc2cc(-c3ccc(F)cc3)sc2c1C
-0.4 | -3.0 | O=C1C=CC(=O)N1CC1CCCO1 (configuration not stated)
-1.3 | nt | CC1CC(C)(C)CC1(C#N)Nc1ccc(CC#N)cc1 (configuration not stated)
0.1 | -14.0 | O=C(c1ccc(Cn2c(=O)[nH]c3ccccc3c2=O)cc1)N1CCN(c2ccccc2)CC1
1.1 | -13.0 | CC(C)OC(=O)Cn1c(C2CC2)nc2ccccc2c1=O
-0.9 | -8.0 | O=c1nc(-c2ccc(Cl)cc2)oc2ccccc12

(further entries)
MgrA DNA FP | S aureus helic | structure
-2.9 | nt | O=C(CN1CCc2ccccc21)Nc1scc2c1c(=O)oc1ccccc12
nt | -13.0 | CCN(CC)C(=O)Oc1ccc2ccccc2c1Br
-1.0 | nt | O=C1C2C3C=CC(O3)C2C(=O)N1c1ccc(Br)cc1[N+](=O)[O-] (configuration not stated)
nt | 19.0 | COc1ccccc1NC(=O)NC(N)=O
1.6 | 6.0 | C=CCn1c(=N)n(CC(=O)c2ccc(OC)cc2)c2ccccc21
nt | -1.0 | CC1CCc2nc(NC(=O)Nc3cccnc3)sc2C1 (configuration not stated)
nt | 2.0 | C=CCn1c(=O)c2ccccc2n2c(SCC(=O)Nc3sc(C)c(CC)c3C(=O)OCC)nnc12
-1.1 | 8.0 | Cc1ccc(NC(=O)c2[nH]c3c(c2C)C(=O)CC(c2ccc(C(C)(C)C)cc2)C3)cc1C (configuration not stated)
nt | -20.0 | COCC(=O)NCc1nc2ccccc2n1Cc1ccccc1C
7.0 | -27.0 | N#Cc1c(N)oc(-c2ccc3c(c2)OCO3)c1-c1ccc2c(c1)OCO2
-5.5 | 16.0 | CSc1nc2cc(F)c(F)cc2n1C
-2.0 | 3.0 | CCOc1ccccc1C(=O)OCCN1CCCC1=O
-1.1 | nt | Cc1noc(C)c1-c1nc(-c2c(Cl)cccc2Cl)no1
-0.3 | 19.0 | O=C(NC1CCCCCC1)c1ccc(Cl)c(S(=O)(=O)N2CCOCC2)c1
-1.2 | 9.0 | C/C(=N\NC(=O)c1ccoc1C)c1ccc(Cl)s1
nt | -10.0 | Cn1c(Cc2nn(C)c(=O)c3ccccc23)nnc1SCc1ccc(Cl)cc1Cl
3.2 | 12.0 | c1ccc(Nc2nc(Nc3ccccc3)nc(N3CCc4ccccc4C3)n2)cc1
1.8 | 21.0 | COc1ccccc1NC(=O)c1c(C)oc2c1CCCC2
nt | 8.0 | CCc1cc2c(=O)c(Oc3ccccc3)c(C(F)(F)F)oc2cc1O
-1.0 | 9.0 | CCOC(=O)c1ccccc1NC(=O)NCc1noc2ccc(C)cc12
nt | 13.0 | CCCCC1CCC(C(=O)NC(C(=O)O)C(C)C)CC1 (configuration not stated)
nt | 20.0 | COc1cccc(CN2C(=O)c3ccccc3C(C(=O)O)C2c2cccc(OC)c2O)c1 (configuration not stated)
nt | -9.0 | COc1ccc(NC(=O)c2ccc(Cl)c(S(=O)(=O)N3CCc4ccccc4C3)c2)cn1
-2.8 | 3.0 | NS(=O)(=O)c1ccc(CCNC(=O)CC(c2ccccc2)c2ccccc2)cc1
nt | -8.0 | Cc1noc(N)c1C#N
0.7 | nt | Cc1ccc(-c2csc3ncnc(N4CCc5ccccc5C4)c23)cc1
0.5 | nt | Clc1nc2sccn2c1C=NCc1cccnc1
nt | -31.0 | CC(=O)OC[C@H]1O[C@@H](NC(=S)NN)[C@H](OC(C)=O)[C@@H](OC(C)=O)[C@@H]1OC(C)=O
nt | -11.0 | CCOc1ccc2nc(SCC(=O)c3cc(C)n(C(C)COC)c3C)sc2c1 (configuration not stated)
nt | -2.0 | CCc1ccc(N2COc3ccc(OC)cc3C2)cc1
-0.9 | nt | COCc1[nH]c(=S)c(C#N)cc1C(=O)OC
nt | -2.0 | CCOC(=O)c1ccc(NC(=O)CC2C(=O)OCC3CCCCN32)cc1 (configuration not stated)
nt | -23.0 | Cc1cc(C(F)(F)F)c(C(=O)O)cn1
0.0 | nt | O=C(NC(=S)Nc1cccc(C(F)(F)F)c1)c1c(F)cccc1F
nt | 16.0 | N#CC1C2=C(CCCC2)SC1NC(=O)c1cc2ccccc2oc1=O (configuration not stated)
nt | -17.0 | COc1ccc(OCCC(=O)O)cc1
nt | 32.0 | CC(C)C(=O)NC(C)c1nc(-c2ccccc2)no1 (configuration not stated)
nt | -12.0 | C/C(=N\NC1=NCCCCC1)c1ccccc1
11.1 | 2.0 | c1ccc(C2OCC3OC(c4ccccc4)OC3CO2)cc1 (configuration not stated)
2.8 | 17.0 | Cc1ccccc1OCCn1c(=S)[nH]c2ccccc21
0.0 | nt | O=C1CCN(c2ncc(C(F)(F)F)cc2Cl)CC1
nt | -13.0 | Cn1c(SCC(=O)NCc2cccnc2)nnc1-c1sc2ccccc2c1Cl
1.4 | -8.0 | C=CCn1cnc2c1c(=O)[nH]c(=O)n2C
nt | -16.0 | COC(OC)c1[nH]c(=S)ncc1C(=O)O
0.6 | 6.0 | CCc1ccc(CNC(=O)CCC(=O)n2ncc3ccccc32)cc1
nt | 2.0 | CCOC(=O)c1ccc2c(c1)N(CC)C(=O)c1ccccc1S2
1.5 | 3.0 | Cc1cccc(N2CCN(C(=O)CCC(=O)N3CCOc4ccc(Cl)cc43)CC2C)c1 (configuration not stated)
nt | 17.0 | Cc1cc2oc(=O)cc(-c3ccccc3)c2c(O)c1CN1CCOCC1

15 entries from above in a different format.
compound	MgrA DNA FP	S aureus helic
CCOC(=O)c1ccc(NC(=O)CC2C(=O)OCC3CCCCN32)cc1 (configuration not stated)	nt	-2.0
Cc1cc(C(F)(F)F)c(C(=O)O)cn1	nt	-23.0
O=C(NC(=S)Nc1cccc(C(F)(F)F)c1)c1c(F)cccc1F	0.0	nt
N#CC1C2=C(CCCC2)SC1NC(=O)c1cc2ccccc2oc1=O (configuration not stated)	nt	16.0
COc1ccc(OCCC(=O)O)cc1	nt	-17.0
CC(C)C(=O)NC(C)c1nc(-c2ccccc2)no1 (configuration not stated)	nt	32.0
C/C(=N\NC1=NCCCCC1)c1ccccc1	nt	-12.0
c1ccc(C2OCC3OC(c4ccccc4)OC3CO2)cc1 (configuration not stated)	11.1	2.0
Cc1ccccc1OCCn1c(=S)[nH]c2ccccc21	2.8	17.0
O=C1CCN(c2ncc(C(F)(F)F)cc2Cl)CC1	0.0	nt
Cn1c(SCC(=O)NCc2cccnc2)nnc1-c1sc2ccccc2c1Cl	nt	-13.0
C=CCn1cnc2c1c(=O)[nH]c(=O)n2C	1.4	-8.0
COC(OC)c1[nH]c(=S)ncc1C(=O)O	nt	-16.0
CCc1ccc(CNC(=O)CCC(=O)n2ncc3ccccc32)cc1	0.6	6.0
CCOC(=O)c1ccc2c(c1)N(CC)C(=O)c1ccccc1S2	nt	2.0

Taken from above:
c1ccc(C2OCC3OC(c4ccccc4)OC3CO2)cc1 (configuration not stated) – MgrA DNA FP = 11.1
C=CCn1cnc2c1c(=O)[nH]c(=O)n2C – MgrA DNA FP = 1.4

The results go on.
MgrA DNA FP | S aureus helic | structure
-0.8 | nt | CCOC(=O)c1cnn2c1nc(Oc1cc(C(F)(F)F)cc(C(F)(F)F)c1)c1ccccc12
1.2 | nt | Cn1nc(C(C)(C)C)cc1C(=O)Oc1ccc(C(F)(F)F)cc1
2.9 | nt | O=S1(=O)CCN(Cc2ccccn2)CC1
nt | -15.0 | CC(=O)Nc1ccc2[nH]c(C)c(C)c2c1
-1.1 | 1.0 | CCOC(=O)c1cccc(NC(=O)c2ccccc2Cl)c1
nt | 2.0 | Cn1cccc1/C=C/C(=O)Nc1ccc2c(c1)CCC2
nt | 1.0 | O=C1CCCS(=O)(=O)c2ccccc21
0.3 | -3.0 | N#CC(C(=O)C1CCCCC1)c1nc2ccccc2[nH]1 (configuration not stated)
-0.3 | 11.0 | O=C(NCc1ccco1)[C@H](Cc1ccccc1)N1Cc2ccccc2C1=O
-2.7 | 0.0 | CC(C)(C)C(=O)Cn1nc(Cl)nc1Cl
0.2 | -2.0 | CCOc1ccc(C(=O)/C=C(/Nc2cccc(C)c2)C(=O)O)cc1
nt | -3.0 | O=C(CSc1ccc(Br)cc1)Nc1ccc(S(=O)(=O)NCc2ccco2)cc1
1.3 | 5.0 | CC1CCC2C(C1)Nc1c(C(=O)O)cccc1C2(C)C (configuration not stated)
0.9 | nt | O=C(Nc1ccc(N2CCCCC2)cc1)Nc1cccc(Cl)c1
3.3 | 9.0 | Cc1cc(C)nc(SCc2nc3ccccc3c(=O)n2-c2ccc(C(F)(F)F)cc2)n1
nt | -10.0 | COc1cc2c(cc1OC)C(C(=O)NCC1CCCO1)C(c1cccnc1)N(C)C2=O (configuration not stated)
